GIV Gai3 FP = GIV-Galpha-i interaction inhibition. Galpha-i3/FITC-GIV peptide fluorescence polarization, 90 min; active compounds read low; scaled: aluminum fluoride 0%, vehicle 100%. 0.42% of 210,000 active. P08753. percent of control (FP), % (concentration not given with the values);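 active = replicate mean at 85% of control or lower, very high polarization wells dropped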;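 also: wells of about 15 µL received 100 nL stock; the first replicate is given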
Target sequence (P08753 whole entry, looked up): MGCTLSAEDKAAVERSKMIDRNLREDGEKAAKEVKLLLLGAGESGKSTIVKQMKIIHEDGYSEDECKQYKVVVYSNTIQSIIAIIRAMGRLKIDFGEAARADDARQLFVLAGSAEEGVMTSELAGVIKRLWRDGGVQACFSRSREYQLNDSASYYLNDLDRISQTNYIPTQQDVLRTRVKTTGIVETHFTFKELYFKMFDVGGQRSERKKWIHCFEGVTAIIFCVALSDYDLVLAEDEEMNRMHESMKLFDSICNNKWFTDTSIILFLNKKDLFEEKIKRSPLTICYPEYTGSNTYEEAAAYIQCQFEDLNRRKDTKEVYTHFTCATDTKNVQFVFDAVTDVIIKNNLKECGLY
Sa growth inh = inhibitors of Staphylococcus aureus growth at 42 °C. S. aureus RN4220 growth, OD600, 20 h; active compounds read low. relative growth, % (concentration not given with the values). 0.53% of 170,000 active. AID 720641;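 active = growth at 42 °C up to 50% and 20 or more points under that at 30 °C, or under 10% at both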;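 also: 300 nL library stock went into each well; scaled to the means of positive and negative controls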
HCMV UL50-53 inh = disrupts HCMV UL50-UL53 complex binding; HTRF UL50-UL53 interaction, normalized percent inhibition; AID 1918969; 0.15% of 190,000 active; inhibition, % (concentration not given with the values);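 active = both replicates at 50% or more, plus weaker picks with an unusually low signal ratio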;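 also: stock transfer was 100 nL into about 20 µL; 0% = negative control wells and 100% = wells with untagged competitor protein; inactives centre near -12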
Sa growth inh second temp = also measured in Sa growth inh; calls as there; relative growth, %; measured here: growth at 30 °C;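 optical density after 20 h as mean of two plates; 100% = untreated growth and lower means inhibition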
Active calls of the source: *; . = not tested or not shown; & = joins results of further samples.

SMILES	GIV Gai3 FP	Sa growth inh	Sa growth inh second temp	HCMV UL50-53 inh
C=CCN(C#N)c1nc(N2CCCCC2)nc(N2CCCCC2)n1	102	80	90	0
O=C1CCC(c2ccccc2)=NN1Cc1c(F)cccc1Cl	103	103	86	.
CCOC(=O)c1cnc2nc(NCc3cccc(Br)c3)[nH]n2c1=O	108	109	101	-2
CCOc1ccc(-c2noc(CSc3ccc(-c4ccc(Br)cc4)nn3)n2)cc1OC	103	.	.	-16
CCOC(=O)c1c(C)n(C)c2ccc(O)c(CN3CCC(C)CC3)c12	.	86	78	-39
Cc1nc2nc[nH]n2c(=O)c1NS(=O)(=O)c1ccc(C2CCCCC2)cc1	99	.	.	-8
CCOC(=O)COc1ccc2c(=O)c(Oc3ccccc3Br)c(C(F)(F)F)oc2c1	103	.	.	-25
Cn1cnnc1SC/C(O)=C(\C#N)c1nc2ccccc2[nH]1	.	89	92	-20
O=C(Nc1cccc(C(F)(F)F)c1)C1CCCN(S(=O)(=O)c2cccc3nsnc23)C1 (stereo not given)	99	108	90	-12
Cc1ccc(-c2cc3nccc(-c4cc(F)ccc4O)n3n2)cc1	96	.	.	-24
COC(=O)C12CC3(C)CC(C)(C1)CC(C(=O)OC)(C3)C2	.	90	84	-13
Cc1cc(-n2c(C)nc3ccccc3c2=O)ccc1NC(=O)c1ccc(C)c([N+](=O)[O-])c1	94	74	11	.
Cc1ccc(Cn2c(C(=O)Nc3ccc(Cl)cc3)cc3sccc32)cc1	105	107	76	8
CCCCN(C)CC(O)Cn1cc(/C=C/C(=O)c2ccc(OC)c(OC)c2)c2ccccc21 (stereo not given)	148	122	79	-15
O=C(NCC(=O)N1CCOCC1)c1ccc(Br)cc1	104	80	102	-2
Cc1ccccc1-c1nc2scc(-c3cccs3)c2c(=O)o1	107	114	103	-2
CS(=O)(=O)n1nccc1-c1ccc(Oc2cccc(Cl)c2C#N)cc1	108	118	79	-10
CCc1ccc(Oc2c(C(F)(F)F)oc3c(CN(C)C)c(O)ccc3c2=O)cc1	104	94	86	.
Cc1cc(=O)n2[nH]c(CCc3ccccc3)nc2n1	96	.	.	-9
Cn1c(-c2ccccc2)cc(C=Nc2ccccc2)c1O	117	4.0*	11*	.
CC(C)c1ccc(S(=O)(=O)NCCOC23CC4CC(CC(C4)C2)C3)cc1	.	87	78	-10
COc1cc2nc(SCC(=O)Nc3ccccc3F)n3nc(-c4ccccc4)nc3c2cc1OC	99	100	93	-14
Cc1nn(CC(=O)NCc2ccco2)c(=O)c2cc3ccccc3n12	106	105	91	-26
N#Cc1cc2c([nH]c1=S)CCC2	110	64	62	-4
CC1c2ccsc2CCN1C(=O)c1ccc(Cl)cc1 (stereo not given)	107	93	102	22
Cc1nc(NC(CC(C)C)C(=O)O)c2nc(C)oc2n1 (stereo not given)	106	89	83	-34
Cc1ccc(NC(=O)N2CCc3c(c(C(=O)NCc4ccccc4)nn3C)C2)cc1	108	.	.	-35
Cn1c(C(=O)Nc2cccc(Cl)c2)cc2c(=O)n(C)c3ccccc3c21	100	110	87	-41
Cc1sc2ncnc(SCc3ccccc3C#N)c2c1C	.	112	111	28
O=C(NCc1ccccc1)C1CCN(c2cnccn2)CC1	103	103	87	-9
O=CN1CCN(C(=O)c2ccco2)CC1	103	93	103	3
COc1ccc(-c2nn(-c3ccccc3)cc2C2SCC(=O)N2Cc2ccccc2)cc1 (stereo not given)	110&94	.	.	-9
COc1ccc(OC)c(C2=NS(=O)(=O)N(C)C(C(=O)Nc3ccc(C(C)=O)cc3)=C2)c1	104	108	93	-28
CC(C)COC(=O)NCc1ccc2c(c1)OCO2	.	93	84	-10
CC1=C(C(N)=O)C(c2ccc(C)cc2)n2ncnc2N1 (stereo not given)	107	.	.	-16
CCOc1ccc(C(=O)Nc2ccc3oc(-c4cccc(F)c4)nc3c2)cc1[N+](=O)[O-]	97	.	.	-20
Cc1ccc(-c2nn(-c3ccccc3)cc2/C=C\C(=O)N2CCOCC2)cc1	.	105	84	-35
Cc1ccccc1Nc1cc(C(=O)NCc2ccccc2)c2ccccc2n1	105	87	94	.
COc1ccc(C2=NS(=O)(=O)N(C)C(C(=O)N3CCCCC3)=C2)cc1	94	79	84	-43
Cn1nccc1-c1nc(-c2ccc(S(=O)(=O)N3CCOCC3)cc2)no1	109	.	.	-26
CCN(c1ccccc1C)S(=O)(=O)c1ccc(C)cc1	105	90	91	-4
CC1(C)CC(=O)C=C(Nc2ccccc2NC(=O)c2cnccn2)C1	101	93	76	-10
CCn1c(CN(c2ccc(F)cc2)S(C)(=O)=O)nnc1SCC(=O)Nc1ccc2c(c1)OCO2	104	.	.	8
COc1ccc(CNC(=O)c2cc(C)nc3c2c(C)nn3-c2cccc(Cl)c2C)cc1	102	90	91	.
Cc1ccc(NC(=O)COC(=O)c2ccc(OCc3c(C)noc3C)cc2)c(C)c1	.	63	87	-28
Clc1nc(SCc2ccccc2)nc2ccccc12	95	103	84	-12
COCC(C)n1c(COc2ccccc2F)nnc1SCC(=O)NC(=O)NC1CCCCC1 (stereo not given)	.	91	80	-15
O=C(O)c1ccc(NC(=NCc2ccccc2)N2CCN(c3ccc(F)cc3)CC2)cc1	105	101	86	-25
CCCNC(=O)NC1CCCCCCC1	103	92	97	12
Cc1ccc2c(c1)c1c(c(=O)n(-c3ccccc3)c(=O)n1CC(=O)c1ccc(F)cc1)n2C	107	99	85	.
Cc1nc(S(=O)(=O)NCc2cc(F)cc3c2OCOC3)cn1C	105	94	90	-16
COc1ccc(CNC(=O)CC(c2ccc(OC)cc2)N2Cc3ccccc3C2=O)cc1 (stereo not given)	105	101	86	.
COC(=O)c1cc(N2C(=O)C3C(C2=O)C2(C)C=CC3(C)O2)ccc1Cl (stereo not given)	104	.	.	-8
CCOc1cc(Cl)c(S(=O)(=O)n2ccnc2CC)cc1Cl	105	87	95	-10
CN(Cc1cc(=O)n2ccsc2n1)c1ccccc1	108	89	91	-26
COc1ccc(NCc2cc3cc4c(cc3n(CC(=O)Nc3cccc(F)c3)c2=O)OCO4)cc1	111	113	97	.
CCc1nnc(SCC(=O)Nc2ccc(F)cc2F)c2cc3sc(C)cc3n12	108	80	92	.
CCOC(=O)c1snc(-c2ccc(Cl)cc2)c1N	99	91	97	-7
COc1cc2oc(=O)c3c(c2cc1Cl)CCCC3	.	79	93	-27
CCOC(=O)c1cc(C)nc(Sc2ccccc2NC(=O)c2ccccc2)c1C#N	101	102	49	-6

Ordered by formula weight (ascending): part of the list above.
SMILES	GIV Gai3 FP	Sa growth inh	Sa growth inh second temp	HCMV UL50-53 inh
CCCNC(=O)NC1CCCCCCC1	103	92	97	12
COc1cc2oc(=O)c3c(c2cc1Cl)CCCC3	.	79	93	-27
CN(Cc1cc(=O)n2ccsc2n1)c1ccccc1	108	89	91	-26
CCOC(=O)c1snc(-c2ccc(Cl)cc2)c1N	99	91	97	-7
Clc1nc(SCc2ccccc2)nc2ccccc12	95	103	84	-12
CC1(C)CC(=O)C=C(Nc2ccccc2NC(=O)c2cnccn2)C1	101	93	76	-10
Cc1nc(S(=O)(=O)NCc2cc(F)cc3c2OCOC3)cn1C	105	94	90	-16
CCOc1cc(Cl)c(S(=O)(=O)n2ccnc2CC)cc1Cl	105	87	95	-10
COC(=O)c1cc(N2C(=O)C3C(C2=O)C2(C)C=CC3(C)O2)ccc1Cl (stereo not given)	104	.	.	-8
CCc1nnc(SCC(=O)Nc2ccc(F)cc2F)c2cc3sc(C)cc3n12	108	80	92	.
COc1ccc(CNC(=O)c2cc(C)nc3c2c(C)nn3-c2cccc(Cl)c2C)cc1	102	90	91	.
Cc1ccc2c(c1)c1c(c(=O)n(-c3ccccc3)c(=O)n1CC(=O)c1ccc(F)cc1)n2C	107	99	85	.
COc1ccc(NCc2cc3cc4c(cc3n(CC(=O)Nc3cccc(F)c3)c2=O)OCO4)cc1	111	113	97	.
COCC(C)n1c(COc2ccccc2F)nnc1SCC(=O)NC(=O)NC1CCCCC1 (stereo not given)	.	91	80	-15
CCn1c(CN(c2ccc(F)cc2)S(C)(=O)=O)nnc1SCC(=O)Nc1ccc2c(c1)OCO2	104	.	.	8

The list goes on:
SMILES	GIV Gai3 FP	Sa growth inh	Sa growth inh second temp	HCMV UL50-53 inh
CCNc1cc(C)nc2nc(-c3ccccc3)nn12	109	.	.	-14
CC1(C)C(=O)OC(C(=O)c2ccccc2)C(C)(C)C1=O (stereo not given)	102	100	78	-6
COc1cc2cc(C)c(SCC(=O)N3CCN(C(=O)c4ccco4)CC3)nc2cc1OC	100	77	76	-31
Cc1cc(/C=C2\NC(=O)NC2=O)c(C)n1-c1ccc(N2CCOCC2)cc1	103	.	.	-59
CCc1nc(CN2CCN(c3ccc(F)cc3)CC2)c(C)[nH]1	100	88	85	-11
Cc1cc(C)n(-c2ccccc2O)n1	96	93	95	-11
CCn1c(C2CC2)n[nH]c1=S	.	95	91	2
COc1ccccc1C1C2=C(CC(c3ccccc3)CC2=O)Nc2onc(C)c21 (stereo not given)	97	.	.	2
Cn1ccc2cc(S(=O)(=O)N3CCN(C(=O)Nc4ccc5c(c4)OCO5)CC3)ccc21	99	.	.	-10
CCOCCCN1C(=O)c2cc3sc(CC)cc3n2CC1(C)C(=O)NC1CCC(C)CC1 (stereo not given)	99	.	.	-15
Cc1cccc(-n2nc(C)c3c(C)cc(=O)oc32)c1	99	89	90	-13
CCOC(=O)Cn1cnc2sc3c(c2c1=O)CCC3	123	.	.	-17
CCC(=O)N1c2ccccc2CC1C(=O)N1CCN(c2ccccc2)CC1 (stereo not given)	101	77	86	.
Nc1ccc(/C=C\C(=O)O)cc1	.	83	102	16
Cc1ccc(NC(=O)c2oc3ccc(S(=O)(=O)N4CCCC4)cc3c2C)c(C)c1	106	98	102	7
O=C(Nc1ccccc1)N1CCCN(c2c(Cl)cncc2Cl)CC1	100	99	85	-29
COCc1cc(C)nc(SCC(=O)OC(C)C)c1C#N	107	93	95	-13
O=C(Nc1ccc(-c2nc3cccnc3s2)cc1)C1c2ccccc2Oc2ccccc21	104	.	.	-4
CSc1c(NC(=O)/C=C\C(=O)O)cccc1C(F)(F)F	100	73	99	-7
N#C/C(C(N)=O)=C(/S)Nc1ccccc1	.	60	34	-17
O=C(CCCn1c(=O)oc2ccccc21)NNc1cccc(C(=O)O)c1	.	87	83	-33
COc1ccc(/C=C2/SC(=O)N(CC(=O)Nc3ccc(S(=O)(=O)Nc4nc(C)cc(C)n4)cc3)C2=O)cc1OC	102	.	.	-48
Cc1nn(CC(=O)NC2CC2)c(=O)c2cc3ccccc3n12	99	102	93	-34
Cc1ccc(C(=O)Nc2c(C(=O)Nc3ccc(C)c(C)c3)sc3nc(C)cc(C)c23)cc1	106	96	94	-4
CCN(CC)C(=O)COc1ccc2c(CC(=O)O)coc2c1	.	101	88	-9
O=c1cc(-c2ccc(O)c(O)c2)oc2cc(O)cc(O)c12	115	.	.	-14&-5&-5&-20
CSc1ccc(CCNC(=O)C(C)n2sc3ccccc3c2=O)cc1 (stereo not given)	100	90	87	-21
Cc1ccc(S(=O)(=O)C(CNC(=O)Cc2ccc(Cl)cc2)c2cccs2)cc1 (stereo not given)	105	65	96	.
Cc1cccc(Cn2c(C)c(C)c3cc(C(=O)NCc4ccc5c(c4)OCO5)ccc32)c1	108	.	.	3
Cc1nc(C)n(C(C)CNS(=O)(=O)c2ccc(C)c(C)c2)n1 (stereo not given)	98	90	80	-11
Cc1nc2ccn(Cc3ccccc3)c(=O)c2cc1C(=O)NCC1CCCO1 (stereo not given)	102	.	.	-31
O=C(O)CCC(C(=O)O)N1C(=O)/C(=C/C=C/c2ccco2)SC1=S (stereo not given)	39*	69	63	75*
CCOc1cnc(-c2ccccc2)o1	99	.	.	-9
C[N+]1(CC(=O)OCCCc2ccccc2)CCCCC1	.	122	77	-29
Cc1ccc(NC(=O)c2cc3c(=O)n(Cc4ccco4)ccc3nc2C)cc1C	93	94	90	.
O=C(CSc1nnc(CNC(=O)c2cccs2)o1)Nc1ccccc1	100	99	83	-35
COc1ccc(-c2csc(Nc3ccc(S(=O)(=O)Nc4cc(C)on4)cc3)n2)cc1C	107	59	28	.
Cc1cccc(NC(=O)c2c(NC(=O)c3ccco3)sc3c2CCC(C(C)(C)C)C3)c1 (stereo not given)	103	97	93	-16
CC(=O)Nc1ccc(OCCOc2ccc(/C=C3/C(=N)N4C=CSC4=NC3=O)cc2)cc1	103	109	96	.
CC(C)(CNC(=O)Nc1ccc(Cl)c(Cl)c1)N1CCOCC1	.	-0.6*	-0.6*	0
Cc1nn(-c2ccccc2)c2c1-c1sc(C(=O)N3CCN(c4ccccn4)CC3)cc1CC2	115	.	.	-6
CCCN1C(=O)CN(C2CCCCCC2)C(=O)C1c1ccc(OCC)c(OC)c1 (stereo not given)	100	91	99	.
CCCN(CCC)S(=O)(=O)c1ccc2c(c1)CCCN2C(C)=O	105	103	79	.
Fc1ccccc1Nc1nc2ccccc2c2nncn12	105	.	.	-6
Cc1ccc(-n2cnnn2)cc1S(N)(=O)=O	101	88	92	.
O=C(NCCN1CCCC1)c1nc(Nc2ccc(F)cc2)c2ccccc2n1	98	.	.	10
Cc1ccc(CNC(=O)c2noc(C)c2Cn2nc(C)cc2C)cc1	101	83	86	-25
COc1cc2ccccc2cc1C(=O)Nc1ccc2oc(-c3ccccc3)nc2c1	104	97	79	4
